PrP 5UTR inh: suppresses PrP 5' UTR mRNA reporter expression. cell-based PrP 5' UTR mRNA reporter, plate reader. inhibition, % (concentration not given with the values). hit rate 0.35% among 340,000. AID 488862;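 active = every replicate at 50% or more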;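 also: 0 = median of the neutral control wells; tested in H4 reporter cells; numbers are from one replicate; inactives centre near -14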
BJeLR viability: kills HRASV12-expressing BJeLR cells | BJeLR (HRASV12) viability, CellTiter-Glo ATP luminescence, 48 h; reference of the scale not given here | inhibition, % (no concentration beside the values) | hit rate 0.17% among 300,000;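 active = replicate mean above 50%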;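 also: 50 nL library stock added to about 25 µL; numbers are from one replicate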
Sa RN4220 lethal: kills Staphylococcus aureus RN4220; S. aureus RN4220 growth, OD600, 16 h; inhibition, % (concentration not given with the values); hit rate 0.33% among 330,000;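 active = z-score of -3 or lower and OD600 up to 0.18 on both plates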;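 also: plate controls were untreated cells for no effect and reference antibiotic for full effect; stock transfer was 100 nL into about 80 µL; one replicate is shown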
Autofluor counter: flagged as autofluorescent in microsphere protease counterscreen; compound autofluorescence counterscreen, microsphere flow cytometry; active compounds read high; fluorescence intensity (no concentration beside the values); hit rate 3.1% among 360,000; AID 624483;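 active = at least 3 SD above the mean of all compounds, about 16000 in these data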;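 also: 100 nL of 1 mM stock went into each well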
Mtb hypoxia rep: Mtb hypoxia fluorescent reporter inhibition. M. tuberculosis hypoxia-regulated fluorescent reporter, fluorescence. hit rate 0.1% among 300,000. fluorescence inhibition, % (test concentration not listed);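 active = 35 to 45% if threefold the growth effect, above 45% if 1.5-fold the growth effect; inactive = the rest, general growth blockers included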;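 also: wells of about 50 µL received 100 nL stock; 0% = vehicle wells and 100% = reference inhibitor wells; whole bacteria with a GFP reporter of the hypoxia response; strong numbers were not always called active; many hits fall short of the cut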
ugtP null kill: kills S. aureus RN4220 lacking UgtP | S. aureus RN4220 ugtP deletion, OD600 growth, 16 h; some inactives read as strong as hits | growth inhibition, % (no concentration beside the values) | hit rate 0.54% among 330,000;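 active = z-score under -3 and OD600 up to 0.15 on both plates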;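 also: plate controls were untreated wells for no effect and antibiotic for full effect; wells of about 80 µL received 100 nL stock; the first replicate is given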
Mtb hypoxia rep growth: second read-out of Mtb hypoxia rep, no call of its own (marks repeat the call); growth inhibition, %; measured here: M. tuberculosis growth (absorbance);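 0% = vehicle and 100% = reference antibiotic; read after six days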
Starred values were filed as active, the others as inactive; nt = no result given; & = joins results of further samples.

SMILES	PrP 5UTR inh	BJeLR viability	Sa RN4220 lethal	Autofluor counter	Mtb hypoxia rep	Mtb hypoxia rep growth	ugtP null kill
Cc1ccc(NC(=O)c2cc(S(=O)(=O)N3CCOCC3)cn2C)c(C)c1	-4	5	3.0	5781	2	3	-3
CCn1cc(CN2CCC(C(=O)Nc3cccc(-c4cccc(F)c4)c3)CC2)cn1	-9	5	-3.9	6431	7	3	-9
CCCCN(C(=O)Nc1ccccc1)C1CCS(=O)(=O)C1 (configuration not stated)	-28	nt	3.6	9096	0	-2	3
O=C(C1=NN[C@@H]2C(=O)N(c3cccc(C(F)(F)F)c3)C(=O)[C@H]12)C(c1ccccc1)c1ccccc1	-20	-2	-4.9	2442	-3	-4	-1
O=C(Cn1c(COc2ccccc2)nc2ccccc21)Nc1cc(Cl)c(Cl)cc1Cl	nt	-8	3.3	nt	1	0	1
CCOC(=O)C(Cc1ccccc1)NC(=O)CCc1nnc2ccc(N3CCCCC3)nn12 (configuration not stated)	2	4	-1.5	5930	-6	10	-4
CC(C)c1csc(CN2CCCC(CCC(=O)NCc3ccccc3F)C2)n1 (configuration not stated)	-30	15	3.2	2223	8	2	10
O=c1c(-c2ccco2)[n+]([O-])c2ccccc2n1OCc1ccccc1	8	15	nt	3336	nt	nt	nt
O=C(COC(=O)c1cc(-c2cccnc2)nc2ccccc12)Nc1ccc(F)cc1F	-11	-3	-2.1	3239	-9	1	-4
COc1ccc(-c2cc(C(=O)N3CCN(c4ncccn4)CC3)c3ccccc3n2)cc1	-37	nt	3.9	8795	-3	-10	-5
CCCCCCCCNc1ncnc2[nH]ncc12	-8	nt	-3.0	3670	4	8	7
CCCCNC(=O)C1CCCN(S(=O)(=O)c2ccc(-n3cnnn3)cc2)C1 (configuration not stated)	-10	-12	-2.2	3232	nt	nt	9
Cc1cccc(Oc2c(C=O)c3ccccc3n2C)c1	-1	8	14	2963	1	7	12
CCOc1cc(-c2cc(-c3ccc(C)cc3)nc(N)c2C#N)ccc1O	-15	-1	17	5949	-3	11	-18
CN(c1ccc(C(=O)O)cc1)S(=O)(=O)c1ccc(Cl)cc1	-16	-5	2.7	3572	nt	nt	2
COc1cccc(NC(=O)CSc2nn3c(=O)c(C)nnc3s2)c1	-19	5	-3.0	5656	-5	3	-8
Cc1nn(Cc2ccccc2)c(=O)n1N(C)c1ncc(C(F)(F)F)cc1Cl	-43	11	4.2	4112	nt	nt	4
Cc1cc(C(=O)NN=Cc2c(C)[nH]c3ccccc23)n[nH]1	nt	nt	0.4	nt	5	10	5
CCCCOC(=O)Nc1cccc(C(=O)OCC)c1	-34	-1	6.8	2221	nt	nt	4
COc1ccc(OC)c(NC(=O)C2CCCCC2C(=O)O)c1 (configuration not stated)	-11	-5	-0.6	3959	nt	nt	5
CCCCN(C(=O)c1cccc(N2C(=O)c3ccccc3C2=O)c1)c1c(N)n(CC(C)C)c(=O)[nH]c1=O	-26	nt	1.7	8813	-6	-7	0
O=C(NCCCN1CCOCC1)c1ccc2nc(Cc3ccccc3F)oc2c1	-14	6	0.0	5804	6	15	4
CC(=O)c1c(C)[nH]c(C(=O)OCn2nnc3ccccc3c2=O)c1C	-9	3	0.6	2561	nt	nt	-5
Cc1ccc(C(=O)NC(=O)CSc2nncn2C)cc1	-7	-1	5.9	3632	3	5	8
c1ccc(CN2CCC(Nc3ncnc4sccc34)CC2)cc1	-11	9	2.2	3218	-3	-2	9

Reprinted from the part before: 2 entries, followed by the next part.
SMILES	PrP 5UTR inh	BJeLR viability	Sa RN4220 lethal	Autofluor counter	Mtb hypoxia rep	Mtb hypoxia rep growth	ugtP null kill
Cc1ccc(C(=O)NC(=O)CSc2nncn2C)cc1	-7	-1	5.9	3632	3	5	8
c1ccc(CN2CCC(Nc3ncnc4sccc34)CC2)cc1	-11	9	2.2	3218	-3	-2	9
C=CCn1c(SCC(=O)NCCCC)nc2scc(-c3ccco3)c2c1=O	-10	-5	-8.2	4514	nt	nt	2
COC(=O)c1cc(-c2ccc(S(=O)(=O)N3CCCC3)cc2)c(C(F)(F)F)s1	-27	-2	3.1	4036	0	4	11
Cc1cccc(C(=O)Nc2ccc(N3CCN(C(=O)c4ccco4)CC3)cc2)c1	-25	2	3.2	5141	11	14	0
Cc1ccc(C)c(N(CC(=O)NCc2ccco2)C(=O)CNS(=O)(=O)c2ccccc2)c1	-19	-11	-0.7	6062	11	4	1
O=C(NC(=S)Nc1ccc2[nH]c(=O)[nH]c2c1)c1cncc(Br)c1	-17	-5	2.8	2766	4	3	6
O=C(CCC(=O)N1CC2C[C@@H](C1)Cn1c2cccc1=O)NCCc1ccccc1	-1	-11	5.3	5578	nt	nt	4
COC(=O)c1ccc(C(=O)OC)c(NC(=O)CCS(=O)(=O)Cc2ccccc2)c1	-8	2	-1.8	5071	-5	-2	-3
CN(CCCC(=O)Nc1ccncc1)S(=O)(=O)c1ccc(Cl)cc1	-15	-5	3.7	4417	6	12	1
COCCOC(=O)C1=C(C)NC(=O)NC1c1cc2c(cc1Br)OCO2 (configuration not stated)	-13	1	3.2	3889	5	-4	1
c1ccc(CCN(Cc2ccccc2)Cc2nc(C3CC3)no2)cc1	-9	-3	0.1	2564	16	5	31
O=C1N(Cc2cccnc2)C[C@@H]2C[C@@H](c3cccc(OCc4ccccc4)c3)N3CCC[C@@]123	-23	-1	7.3	5083	5	1	5
CCOc1ccc(C)cc1S(=O)(=O)NC1CCCCC1	1	-4	3.5	8635	0	18	5
O=S(=O)(NCc1nc2ccccc2[nH]1)c1ccccc1	-8	-8	2.9	5552	14	9	5
CCCCc1c(O)nc(SCC(=O)NCC2CCCO2)[nH]c1=O (configuration not stated)	-16	1	0.4	4897	nt	nt	1
CC(=O)C1=C(O)C(=O)N(c2ccc(F)cc2)C1c1ccc(C)cc1 (configuration not stated)	-44	-29	4.1	3832	11	10	-4
S=C(Nc1ccc(Br)cc1)N1CCN(c2ccccn2)CC1	-26	-12	-0.3	4682	0	-2	0
CC1CCN(C(=O)C2CCN(c3nnc(-n4cccc4)s3)CC2)CC1	-24	3	2.7	5569	nt	nt	9
COc1cccc(NC(=O)N2CCN(c3ccc(C(F)(F)F)cn3)CC2)c1	-12	-2	-14	2945	1	4	-8
COc1cccc(NC(=O)CN(C)C(=O)c2c(C)noc2C)c1	6	nt	-0.2	3915	-5	2	0
Cc1ccc(/C(O)=C2\C(=O)C(=O)N(C)C2c2ccc(F)cc2)cc1 (configuration not stated)	-5	7	1.7	3343	4	-5	0
CC(=O)c1c(C)[nH]c(C(=O)COC(=O)CNS(=O)(=O)c2ccccc2)c1C	-4	8	2.3	9577	-2	1	6
CCc1ccc2oc(-c3ccc(NC(C)=O)cc3)nc2c1	-45	16	-3.8	3544	12	4	11
CC(C)CCN1C(N(C)C)=NCC1C (configuration not stated)	nt	nt	6.5	nt	16	11	5
O=C(NCc1cccnc1)c1cccs1	-49	6	5.4	4801	-7	4	4
COc1ccc(CN2CNc3c(c(=O)n(C)c(=O)n3C)C2)cc1	-37	-7	2.9	9869	6	1	5

Continuation.
SMILES	PrP 5UTR inh	BJeLR viability	Sa RN4220 lethal	Autofluor counter	Mtb hypoxia rep	Mtb hypoxia rep growth	ugtP null kill
CN(C(=O)COC(=O)CCc1nc2ccccc2c(=O)[nH]1)C1CCS(=O)(=O)C1 (configuration not stated)	-48	1	1.3	4628	14	2	9
CN(C)c1ccc(N=Nc2ccc3ncccc3c2)cc1	9	nt	-2.4	3590	7	8	-15
CC(=O)c1cccc(S(=O)(=O)N2CCCC(c3nc4c(nnn4Cc4ccc(C)cc4)c(=O)[nH]3)C2)c1 (configuration not stated)	0	-8	2.8	4381	-3	-2	2
COc1ccc(C(=O)NCC(=O)N/N=C(\C)Cc2ccccc2)cc1	-14	5	nt	5483	nt	nt	nt
O=C(CSc1nc2c(cnn2-c2ccc(F)cc2)c(=O)[nH]1)N1CCCCC1	-17	7	7.2	5729	13	10	-3
Cc1ccc(C(=O)Nc2ccccc2C(=O)NCc2ccccc2)cc1	-131	3	-0.2	2252	15	10	20
COc1cccc(-n2c(SCC(=O)NCC3CCCO3)nc3c(c2=O)SCC3)c1 (configuration not stated)	-17	4	3.6	5896	8	6	2
COc1ccc(C(NC(=O)OC(C)(C)C)C(=O)OC(C)(C)C)cc1 (configuration not stated)	nt	nt	4.9&4.1	nt	18&2	11&6	3&-2
O=S(=O)(c1cc(F)ccc1F)N1CCN2CCCC2C1 (configuration not stated)	-29	3	5.0	4658	10	-1	5
CCn1c(=N)c(S(=O)(=O)c2ccc(C)cc2)cc2c(=O)n3ccccc3nc21	nt	0	5.9	nt	12	14	6
CCCNc1nc(N2CCOCC2)nc(N2CCOCC2)n1	-27	2	3.3	9635	8	12	2
COc1ccc(C2=NOC3(CC(=O)N(c4ccc(Cl)cc4)C3=O)C2)c(OC)c1 (configuration not stated)	-12	10	7.0	20488*	16	6	0
COc1ccc(CC(=O)NC(C)c2nnc(SCC(=O)Nc3ccccc3)n2C)cc1 (configuration not stated)	2	-7	-0.5	4116	3	0	2
CCOC(=O)CCNC(=O)CCNC(=O)C(c1ccccc1)c1ccccc1	-5	9	3.4	6408	16	1	5
COc1cc(NC(=O)c2cncc(-c3ccc(C#N)cc3)c2)cc(C(=O)Nc2cccc(C(F)(F)F)c2)c1	-12	-13	3.8	3820&4279	10	3	6
C#CC(C)(CC)NC(=O)c1cc2nc(C3CC3)cc(C(F)(F)F)n2n1 (configuration not stated)	-15	7	8.7	4955	5	5	3
CCOCCCNC(=O)CSc1ccccc1	-20	-5	3.7	6634	5	2	7
Cc1ccccc1/C=C/C(=O)NCC(=O)N1CCC(N(C)C2CCCCC2C)CC1 (configuration not stated)	-1	-5	nt	1981	nt	nt	nt
COC(=O)CNC(=O)C1CC(=O)N(CCc2ccc(F)cc2)C1 (configuration not stated)	-13	4	-0.8	nt	4	9	-3
COc1ccc(-c2[nH]ncc2CN(CC2CCC(=O)N2)C(C)C)cc1F (configuration not stated)	-25	4	2.2	4104	1	11	8
Cc1ccc(-c2nn(-c3ccccc3)cc2/C=C(\C#N)c2cccc(C#N)c2)o1	-24	-6	11	3034	nt	nt	27
COc1cc2oc(=O)cc(C)c2c(OC)c1OC	0	-9	6.2	1960	6	0	-3
CCOc1ccc(C(=O)OCC(=O)N(Cc2ccccc2)Cc2ccccc2)cc1OC	-15	nt	0.6	8805	-3	5	6
COc1ccc(C=NNC(=O)CCSc2nc3ccccc3s2)cc1	nt	nt	3.0	nt	-5	4	2
Cc1cccc(N2CCN(C(=O)c3ccc(Cl)c(NC4=NC5CS(=O)(=O)CC5S4)c3)CC2C)c1 (configuration not stated)	2	0	3.1	4473	-10	-6	4

New compounds follow
SMILES	PrP 5UTR inh	BJeLR viability	Sa RN4220 lethal	Autofluor counter	Mtb hypoxia rep	Mtb hypoxia rep growth	ugtP null kill
CC(C)Oc1ccc(C(=O)Nc2ccc(N3CCN(C(=O)c4ccco4)CC3)cc2)cc1	-15	-5	0.5	4385	-7	2	2
CSCC[C@H](NC(=O)N1CCn2c1nc1ccccc12)C(=O)N[C@H](Cc1ccccc1)C(=O)O	-31	1	3.1	5174	nt	nt	8
COc1ccc(Nc2ccc(N3C(=O)CC(C)C3=O)cc2[N+](=O)[O-])cc1OC (configuration not stated)	-19	18	2.5	4914	13	-5	0
COc1ccc(CC(=O)O/N=C(\N)c2ccccc2)cc1OC	-16	-8	1.8	4170	4	0	2
COC(=O)c1ccc(CSc2nnc3nc(C)cc(C)n23)cc1	-10	2	-2.1	4570	17	4	12
COc1ccc(-c2sc3cc4c(cc3c2-c2ccc(OCCN3CCCCC3)cc2)OCO4)cc1	-12	nt	1.1	4139	18	18	-3
O=C(NCc1ccco1)Nc1cccs1	-12	12	-6.8	3103	4	3	1
CCOC(=O)c1c(C)n(S(=O)(=O)c2ccc(C)cc2)c2ccc(O)c(C(=O)O)c12	-13	-1	-1.6	5184	6	2	-4
N#CC(C(=S)Nc1ccccc1)c1nc2ccccc2[nH]1 (configuration not stated)	-29	-3	6.1	4252	1	0	-1
CCOC(=O)c1c(C)[nH]c(C(=O)Nc2ccc3c(c2)OCO3)c1C	nt	2	1.4	nt	10	18	-9

Single values from above:
Entry for CC(C)Oc1ccc(C(=O)Nc2ccc(N3CCN(C(=O)c4ccco4)CC3)cc2)cc1 under PrP 5UTR inh: -15
Entry for O=C(NCc1ccco1)Nc1cccs1 under Autofluor counter: 3103
Entry for N#CC(C(=S)Nc1ccccc1)c1nc2ccccc2[nH]1 (configuration not stated) under Mtb hypoxia rep growth: 0
Entry for COc1ccc(CC(=O)O/N=C(\N)c2ccccc2)cc1OC under BJeLR viability: -8

High-throughput results deposited in PubChem BioAssay by several laboratories.
